Source: PubChem
PABP polyA inh – blocks human PABP binding to poly(A) RNA. P11940. fluorescence polarization. inhibition, % at 35 µM. 1% of 290,000 active. AID 2014;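 active = 50% or more with normal probe brightness, or confirmed in later tests; about a fifth of its hits are not listed in these tables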;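 also: calls also rest on retests at 20 µM and on dose response follow-up; controls were probe without protein and protein plus probe with vehicle; some compounds called inactive have numbers as strong as hits; many hits fall short of the cut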
Yeast UUG start – alters start codon recognition fidelity in yeast; S. cerevisiae UUG-firefly luciferase reporter, luminescence/redox ratio; activity score, % at 18.7 µM; 0.13% of 350,000 active; AID 602363;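 active = replicate mean at a twofold rise or more, about +100% in these data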;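 also: firefly luciferase made from a UUG start codon reports start codon fidelity; reporter light over untreated wells divided by growth signal over untreated wells; some hits fall short of that in this replicate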
MT1-MMP act inh – MT1-MMP (human) activation inhibition; P50281; HT1080 RFP-PRO-GFP cells, GFP/RFP ratio fluorescence, overnight; percent of plate control window, DMSO zero; GFP/RFP ratio change, % at 20 µM; 0.061% of 360,000 active; AID 651647;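 active = GFP/RFP ratio change of at least 30% with cell ATP level not reduced by more than half and red fluorescence within 50% of control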; also: strong numbers were not always called active
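Assay system: HT1080 cells carrying an RFP-PRO-GFP reporter | Dosing: Single dose of 20 µM compound, 1% DMSO final | Incubation: Cells overnight before dosing, compound overnight, 37 °C, 5% CO2 | Evaluation: GFP/RFP fluorescence ratio | Control set: DMSO and RFP-L50D-GFP cell wells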
HIV Env fusion – blocks HIV Env-driven cell-cell fusion | inhibition, % at 12.3 µM | 1.1% of 360,000 active | AID 651610 | HeLa-JRFL Env/CEM21 cell fusion, luciferase;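 active = mean replicate inhibition score of at least 50 and every replicate individually at or above 50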;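 also: 0% = plate neutral controls and 100% = maraviroc near 300 nM; one replicate is shown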
CSC inhib – cancer stem cell inhibition; inhibition, % at 7.5 µM; AID 2717; cancer stem cell-like cells viability, luminescence; 1.1% of 300,000 active;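 active = mean at 75% or more and at least half the replicates too; tested in HMLE shEcad cells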;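 also: 0% = median of negative and 100% = median of positive control wells; the first replicate is given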
eIF4H inh – inhibitors of RNA binding by human eIF4H | inhibition, % at 35 µM | AID 2012 | eIF4H fluorescence polarization binding assay | Q15056 | 0.94% of 290,000 active;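 active = 50% or more with normal probe brightness, or confirmed in later tests; about a fifth of its hits are not listed in these tables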;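 also: calls also rest on retests at 20 µM and on dose response follow-up; 0% = protein and probe with vehicle and 100% = probe without protein; strong numbers were not always called active; many hits fall short of the cut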
Rce1 inh – blocks yeast Ras-converting enzyme | Q03530 | yeast membranes, quenched prenylated peptide cleavage fluorescence | calls only | 0.27% of 290,000 active | AID 2563;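 active = fall in fluorescence gain of 50% or more versus controls, with final raw signal at or below 3038400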;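 also: plate controls were neutral control wells for no effect and wells lacking membranes for full effect; tested at 10 µM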
Target sequence (Q03530 whole entry, looked up): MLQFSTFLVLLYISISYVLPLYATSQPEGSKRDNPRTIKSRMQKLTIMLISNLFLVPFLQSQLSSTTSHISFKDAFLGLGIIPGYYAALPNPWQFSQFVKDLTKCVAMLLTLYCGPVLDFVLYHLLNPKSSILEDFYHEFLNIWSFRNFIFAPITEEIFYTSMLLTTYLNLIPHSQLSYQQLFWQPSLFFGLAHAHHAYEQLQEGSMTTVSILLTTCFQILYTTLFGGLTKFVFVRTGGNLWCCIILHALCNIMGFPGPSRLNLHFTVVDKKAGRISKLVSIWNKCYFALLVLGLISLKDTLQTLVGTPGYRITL
eIF4H inh retest – further read-out of eIF4H inh, marked with its call; inhibition, %; compound at 20 µM; confirmation average;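 mean of two retest wells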
PABP polyA inh retest – further read-out of PABP polyA inh, marked with its call; inhibition, %; compound at 20 µM; confirmation repeats;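 mean of two retest wells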
MT1-MMP act inh RFP – second read-out of MT1-MMP act inh, no call of its own (marks repeat the call); RFP signal change, %; measured here: RFP expression control read;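 0 = vehicle wells; hits needed this value within 50% of zero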
Numbers without * were called inactive; i = inactive; · = not tested or not shown.

SMILES | PABP polyA inh | Yeast UUG start | MT1-MMP act inh | MT1-MMP act inh RFP | HIV Env fusion | CSC inhib | eIF4H inh | Rce1 inh | others
COc1ccc(C)c(-n2c(=O)n(Cc3ccccc3)c(=O)c3[nH]cnc32)c1 | -4 | -18 | 0 | 3 | 9 | -4 | -4 | i
CCN(CC)S(=O)(=O)c1cc(NC(=O)Cc2ccc(S(=O)(=O)N3CCOCC3)s2)ccc1Cl | · | -3 | -5 | -30 | 8 | · | · | ·
CC(CCc1ccccc1)NC(=O)c1ccc(NC(=O)c2cccc(Br)c2)cc1 (stereo unspecified) | 9 | -20 | 2 | -1 | 17 | -2 | 3 | i
CCOc1ccc(/C=C/c2[nH]c(=O)[nH]c(=O)c2[N+](=O)[O-])cc1 | 36 | -12 | 0 | 2 | 0 | -2 | 5 | i
O=C1CNC(=O)/C(=C/c2ccco2)N1 | -7 | -23 | 2 | 5 | 4 | -8 | 106* | i | eIF4H inh retest=53*;PABP polyA inh retest=2
O=C1NCC(Nc2ccc(Br)cc2)C(=O)N1 (stereo unspecified) | · | -22 | -1 | 1 | -36 | · | · | ·
C=CCNC(=O)c1cccc(Br)c1 | 10 | -13 | 3 | 3 | -21 | -16 | 5 | i
O=C(Nc1cccnc1)C1Cc2c(-c3cccc(F)c3)ccnc2O1 (stereo unspecified) | · | -4 | 6 | -7 | -13 | · | · | ·
C[C@H](CO)N1C[C@H](C)[C@@H](CN(C)S(=O)(=O)c2ccccc2)Oc2ccc(NS(=O)(=O)c3ccc(F)cc3)cc2C1=O | · | -15 | 5 | 2 | -34 | -9 | · | ·
CC1CC(C)(C)N(C(=O)CN2C(=O)c3ccccc3C2=O)c2ccccc21 (stereo unspecified) | 3 | 0 | 0 | 0 | · | -7 | -6 | i
C=C(C)CNC(=S)Nc1sc2c(c1C(=O)OCC)CC(C)(C)OC2 | 5 | · | -4 | 3 | · | -12 | -7 | i
S=C(NCc1cccnc1)Nc1ccc(Cl)cc1 | -4 | · | 2 | 0 | · | -13 | -18 | i
CCCCc1nc(SCC(=O)Nc2nnc(C(C)C)s2)n[nH]1 | -10 | -27 | -1 | 4 | 1 | -4 | -12 | i
CC(C)(Oc1ccc(Cl)cc1)C(=O)NCCCn1ccnc1 | -7 | -21 | 5 | 0 | -8 | -12 | -13 | i
Cc1cc(NO)nc(-c2ccc(Br)cc2)n1 | 4 | -9 | 0 | -4 | -92 | -12 | -6 | i

The closing 3 entries of the part before are carried over, then new ones follow:
SMILES | PABP polyA inh | Yeast UUG start | MT1-MMP act inh | MT1-MMP act inh RFP | HIV Env fusion | CSC inhib | eIF4H inh | Rce1 inh | others
CCCCc1nc(SCC(=O)Nc2nnc(C(C)C)s2)n[nH]1 | -10 | -27 | -1 | 4 | 1 | -4 | -12 | i
CC(C)(Oc1ccc(Cl)cc1)C(=O)NCCCn1ccnc1 | -7 | -21 | 5 | 0 | -8 | -12 | -13 | i
Cc1cc(NO)nc(-c2ccc(Br)cc2)n1 | 4 | -9 | 0 | -4 | -92 | -12 | -6 | i
CC1CC(C)CN(CC(=O)c2cccs2)C1 (stereo unspecified) | -11 | -3 | 2 | -1 | -9 | -8 | 11 | i
O=C(O)c1ccc(NS(=O)(=O)c2cccc(S(=O)(=O)c3ccc(Cl)c(Cl)c3)c2)cc1 | 19 | · | -3 | 2 | · | -5 | 4 | i
O=C(/C=C/c1ccccc1)CCN1CCCCC1 | · | -2 | 4 | 0 | -4 | · | · | ·
COc1cc2cc(C(=O)N3CCN(c4ccccc4OC)CC3)[nH]c2cc1OC | 1 | -13 | -1 | -3 | 5 | -5 | -6 | i
O=C(c1ccccc1Sc1ccc([N+](=O)[O-])cc1)N1CCCCC1 | 4 | · | 2 | -1 | -23 | -1 | -4 | i
Cc1ccc(-c2cc(C(=O)Nc3sc4c(c3C(=O)NCc3ccco3)CCC4)[nH]n2)c(O)c1 | 29 | -17 | 0 | -2 | 23 | 5 | 2 | i
CC(c1ccco1)N(C(=O)c1ccccc1NS(=O)(=O)c1cccc([N+](=O)[O-])c1)c1ccccn1 (stereo unspecified) | -1 | · | -4 | -3 | · | 3 | 8 | i
CCOC(=O)N1CCC(NC(=O)c2ccc3c(c2)N=C(CC)c2ccccc2S3)CC1 | -6 | -14 | 2 | -10 | -1 | 8 | 4 | i
Cc1cc(=O)[nH]c(SCc2ccc(Cl)cc2)n1 | · | · | 1 | -1 | 11 | -12 | · | i
C#CCOCCOCCOCCNc1nc(N2CCN(C(=O)[C@H]([C@@H](C)CC)n3cc([C@@H](N)CC(C)C)nn3)CC2)nc(N2CCN(C(=O)[C@H](Cc3cc4ccccc4[nH]3)n3cc([C@@H](N)C(C)CC)nn3)CC2)n1 (stereo partly specified) | 37 | · | · | · | · | · | 16 | i
Cc1ccc(S(=O)(=O)Nc2ccccc2CNC2CCCCC2)cc1 | 4 | · | -4 | -2 | 11 | -4 | 0 | i
CCn1nc(C)c(CN2CCC(n3nccc3NC(=O)c3ccc4c(c3)OCO4)CC2)c1C | 7 | -15 | 1 | 7 | -1 | -6 | -1 | i
Cc1cc(S(=O)(=O)NCCN(C)C)c(C)s1 | -2 | -1 | 3 | 2 | -45 | -8 | -7 | i
Cc1ccc(-c2c[nH]c(=S)n2-c2ccccc2F)cc1 | -11 | · | -3 | -4 | -3 | · | 3 | i
CN(Cc1ccco1)S(=O)(=O)c1csc(C(N)=O)c1 | 13 | -15 | 3 | 2 | -7 | -4 | 8 | i

Pulled by structure from the list above (3):
SMILES | PABP polyA inh | Yeast UUG start | MT1-MMP act inh | MT1-MMP act inh RFP | HIV Env fusion | CSC inhib | eIF4H inh | Rce1 inh | others
COc1cc2cc(C(=O)N3CCN(c4ccccc4OC)CC3)[nH]c2cc1OC | 1 | -13 | -1 | -3 | 5 | -5 | -6 | i
Cc1ccc(S(=O)(=O)Nc2ccccc2CNC2CCCCC2)cc1 | 4 | · | -4 | -2 | 11 | -4 | 0 | i
Cc1ccc(-c2cc(C(=O)Nc3sc4c(c3C(=O)NCc3ccco3)CCC4)[nH]n2)c(O)c1 | 29 | -17 | 0 | -2 | 23 | 5 | 2 | i

The listing continues:
SMILES | PABP polyA inh | Yeast UUG start | MT1-MMP act inh | MT1-MMP act inh RFP | HIV Env fusion | CSC inhib | eIF4H inh | Rce1 inh | others
CCN(c1ccc(OC)cc1)S(=O)(=O)c1nnc(NC(=O)c2ccco2)s1 | 12 | -14 | 0 | -1 | 0 | 8 | 17 | i
Cc1cccc(NC(=O)Cn2cnc3ccccc3c2=O)c1C | -2 | -5 | 1 | 0 | · | 18 | -4 | i
CCOc1nc(-c2ccc(OC)cc2)ccc1-c1noc(-c2cc(OC)c(OC)c(OC)c2)n1 | -3 | 7 | -18 | -6 | 32 | 4 | -2 | i
COc1ccc(Nc2nc(Cl)nc(NCCO)n2)cc1 | 1 | -30 | 4 | 6 | -1 | -9 | 3 | i
OCCn1c(CSc2nnc(-c3ccco3)n2-c2ccccc2)nc2ccc(Cl)cc21 | 1 | -15 | -1 | 7 | -151 | -17 | 7 | i
O=C(OCC#CCSc1nnc(-c2ccccc2)o1)c1cc2ccccc2o1 | -18 | -10 | 3 | 0 | 0 | 20 | -6 | i
Cc1sc(C(=O)Nc2ccc3ccccc3c2)cc1CC(=O)O | 1 | -14 | 3 | 6 | -17 | -8 | -3 | i
Cc1ccc(C)c(NC(=S)NCC(c2cccnc2)N2CCOCC2)c1 (stereo unspecified) | 12 | · | 2 | 1 | -19 | -5 | -8 | i
COc1ccc(NC(=O)C2(C)Cc3c(-c4cccc(C(N)=O)c4)ccnc3O2)cc1 (stereo unspecified) | · | -5 | 13 | -1 | -5 | · | · | ·
Cc1ccccc1NC(=O)CC1S/C(=N/c2nccs2)N(C)C1=O (stereo unspecified) | 3 | 1 | -4 | 2 | -17 | 5 | -7 | i
Cc1ccc([C@@H]2C[C@H]3[C@@H](CN2S(=O)(=O)c2ccc(C)cc2)C(=O)C[C@@H](c2ccc(Cl)cc2)N3S(=O)(=O)c2ccc(C)cc2)cc1 | · | -36 | -2 | -3 | 29 | · | · | ·
CN1CCN(CCC(=O)Nc2ccc(C3CCCC3)cc2)CC1 | 10 | -15 | 1 | 1 | -3 | 18 | -7 | i
COc1ccc(-c2cnc3c(NC=O)cc(-c4ccc(F)cc4)cn23)cc1OC | · | 1 | -4 | 3 | -75 | · | · | ·
Cc1nc2cc(NC(=O)Nc3cccc4ccccc34)ccc2n1C | -1 | · | 4 | -1 | -79 | -2 | 11 | i
CCSc1nsc(NC(=O)Nc2ccccc2OC)n1 | 4 | -12 | 3 | -2 | -4 | 3 | 1 | i
CC(OC(=O)Cc1n[nH]c(=O)c2ccccc12)C(=O)Nc1ccccc1[N+](=O)[O-] (stereo unspecified) | 7 | -7 | 3 | -5 | · | -9 | -14 | i
O=C(C[n+]1ccc2ccccc2c1)Nc1cc(C(F)(F)F)ccc1Cl | -3 | -3 | -8 | 2 | -19 | -8 | -3 | i
NS(=O)(=O)c1cccc(NC(=O)Cn2cnc3ccccc3c2=O)c1 | 0 | -13 | -2 | 4 | -60 | -14 | -4 | i
CC(C)CNC(=O)COC(=O)CCC(=O)c1ccc(Cl)cc1 | -1 | -7 | -3 | -1 | 10 | -12 | -8 | i
CC(C)=CC(=O)Nc1ccc(S(=O)(=O)Nc2ccccn2)cc1 | -2 | · | -2 | -1 | -5 | -4 | -6 | i
COc1cc(Cl)c(S(=O)(=O)N2CCN(Cc3ccc4c(c3)OCO4)CC2)cc1Cl | 4 | 0 | 1 | 6 | 14 | 39 | 9 | i
Cc1ccc(-n2nnnc2CS(=O)(=O)c2ccccc2)c(C)c1 | -2 | -3 | -3 | 2 | -21 | 5 | -7 | i
CCSC(=O)CCCCCCCCCCCO | -6 | 0 | -4 | 1 | · | -7 | -7 | i
CC1(C)S[C@@H]2C(C(=O)OCc3ccccc3)NC(=O)N2C1C(=O)OCc1ccccc1 (stereo partly specified) | · | 6 | -1 | -2 | 16 | -1 | · | i
Cc1ccccc1Cn1nc(C)c(NC(=O)C2c3ccccc3Oc3ccccc32)c1C | 7 | · | 8 | 2 | -159 | 11 | 3 | i
O=C(O)c1ccc(Cl)c(S(=O)(=O)Nc2ccc(S(=O)(=O)N3CCCC3)cc2)c1 | · | 7 | 2 | 3 | · | -4 | · | ·
COc1ccc(/C=C\C(=O)c2c(O)ccc3c(C)cc(=O)oc23)cc1 | 0 | -15 | 0 | -4 | · | 27 | -1 | i
CCc1ccccc1N(CC(=O)NC1CCCCC1)C(=O)CNC(=O)c1ccco1 | 1 | -14 | 2 | 4 | -4 | 0 | -6 | i
CC(C)(C)NC(=O)c1ccc2c(c1)N(CC(=O)N1CCN(c3ccccc3F)CC1)C(=O)C(C)(C)O2 | -4 | -17 | 2 | -2 | -13 | · | -6 | ·
